# Screening data from PubChem.
# RN4220 kill: kills Staphylococcus aureus RN4220; S. aureus RN4220 growth, OD600, 16 h; AID 1259311; hit rate 0.33% among 330,000; inhibition, % (test concentration not listed);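 active means z-score of -3 or lower and OD600 up to 0.18 on both plates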;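 further: plate controls were untreated cells for no effect and reference antibiotic for full effect; stock transfer was 100 nL into about 80 µL; one replicate is shown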
# PrP 5UTR inh: inhibition of PrP 5' UTR reporter expression | cell-based PrP 5' UTR mRNA reporter, plate reader | inhibition, % (no concentration beside the values) | hit rate 0.35% among 340,000 | AID 488862;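 active means every replicate at 50% or more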;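 further: 0 = median of the neutral control wells; tested in H4 reporter cells; numbers are from one replicate; inactives centre near -14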
# Mtb hypoxia inh: inhibitors of hypoxia-regulated fluorescent reporter in Mycobacterium tuberculosis; M. tuberculosis hypoxia-regulated fluorescent reporter, fluorescence; fluorescence inhibition, % (no concentration beside the values); hit rate 0.1% among 300,000; AID 1159583;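 active means 35 to 45% if threefold the growth effect, above 45% if 1.5-fold the growth effect; inactive means the rest, general growth blockers included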;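 further: wells of about 50 µL received 100 nL stock; 0% = vehicle wells and 100% = reference inhibitor wells; whole bacteria with a GFP reporter of the hypoxia response; strong numbers were not always called active; many hits fall short of the cut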
# BJeLR lethal: BJeLR cell viability loss; inhibition, % (test concentration not listed); BJeLR (HRASV12) viability, CellTiter-Glo ATP luminescence, 48 h; reference of the scale not given here; hit rate 0.17% among 300,000;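 active means replicate mean above 50%; inconclusive means above 50% but judged a plate artefact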;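 further: 50 nL library stock added to about 25 µL; numbers are from one replicate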
# Autofluor counter: counter-screen for toxin protease inhibitors: compound fluorescence. compound autofluorescence counterscreen, microsphere flow cytometry; hits give high values. fluorescence intensity (concentration not given with the values). hit rate 3.1% among 360,000. AID 624483;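 active means at least 3 SD above the mean of all compounds, about 16000 in these data; inconclusive means too few beads counted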;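 further: 100 nL of 1 mM stock went into each well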
# ugtP null kill: compounds lethal to S. aureus RN4220 ugtP deletion mutant. OD600 growth, 16 h; some inactives read as strong as hits. growth inhibition, % (concentration not given with the values). hit rate 0.54% among 330,000. AID 1259309;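 active means z-score under -3 and OD600 up to 0.15 on both plates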;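 further: plate controls were untreated wells for no effect and antibiotic for full effect; wells of about 80 µL received 100 nL stock; the first replicate is given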
# Mtb hypoxia inh growth: further read-out of Mtb hypoxia inh, marked with its call; growth inhibition, %; measured here: M. tuberculosis growth (absorbance);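 0% = vehicle and 100% = reference antibiotic; read after six days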
# The depositor's hits bear a star; ? = inconclusive; · = not tested or not shown.
SMILES,RN4220 kill,PrP 5UTR inh,Mtb hypoxia inh,Mtb hypoxia inh growth,BJeLR lethal,Autofluor counter,ugtP null kill
CCOc1cc(/C=C2\CCCC(C(=O)C(F)(F)F)=C2O)ccc1O,6.4,-36.5,12.7,10.6,14.4,2945,0.2
O=C(/C=C/c1cccc(F)c1)Nc1cc(S(=O)(=O)N2CCOCC2)ccc1Cl,-1.8,-18.9,8.2,4.3,·,3037,-2.2
CCN1CCN(Cc2cccc(Oc3ccccc3)c2)CC1,1.2,-14.3,12.9,3.6,1.6,11456,23.9
CC1CCCC(NC(=O)CCNC(=O)c2ccc(Br)cc2)C1C (configuration not stated),8.6,-30.4,13.2,-0.9,2.1,?,6.7
CC1CCc2c(sc3nn[nH]c(=O)c23)C1 (configuration not stated),3.7,-19.9,5.9,2.2,-1.3,9273,4.6
COc1cccc(CCNC(=O)C2CCCN(c3ncnc4c3nc3n4CCCCC3)C2)c1OC (configuration not stated),5.2,-20.2,6.3,-3.7,5.9,6741,7.6
CCc1ccccc1NC(=O)Nc1cnccn1,1.6,4.3,7.2,8.4,-5.0,4533,1.1
Cc1onc(-c2ccccc2)c1C(=O)NN=Cc1cccs1,2.2,·,-6.2,-1.7,·,·,3.7
Cc1nnc(CN(C)Cc2cn[nH]c2-c2ccc(-c3ccccc3)cc2)o1,4.3,-32.5,3.9,-0.3,5.0,4531,8.6
O=c1c2ccccc2nc(-c2ccc(Cl)cc2Cl)n1-c1nccs1,7.5,7.3,8.0,7.8,3.6,1995,1.8
O=C(Nc1cccc(-c2nnc(-c3ccccc3)o2)c1)C1CC1,6.6,-32.7,-2.9,-3.8,-7.2,2302,-15.1
CN1CCN(CCN2CCn3c2nc2ccccc23)CC1,0.8,-23.8,·,·,-6.8,4117,5.5
COc1cc(C=NN(c2ccccc2)c2ccccc2)ccc1O,-0.2,·,1.7,3.2,·,·,75.2
CCc1nnc(NC(=O)c2cc(-c3cccnc3)nc3ccccc23)s1,-1.6,-28.0,1.5,0.2,2.7,3909,-10.9
CN(CCc1ccccn1)S(=O)(=O)c1ccccc1F,0.2,-13.2,3.9,11.4,-1.4,·,-6.5
C=CCOc1c(Br)cc(/C=N/O)cc1OCC,·,-0.1,·,·,5.6,2699,·
COc1ccccc1-c1cc(C2CC2)nc(N)c1C#N,4.2,-11.8,6.0,7.4,6.4,9822,6.6
O=C(CC(=O)NN=Cc1ccccc1O)NCc1cccnc1,5.6,·,10.2,6.1,·,·,-7.4
COc1ccc2cc(C3CC(c4cccs4)=NN3S(C)(=O)=O)c(Cl)nc2c1 (configuration not stated),2.2,-4.2,3.3,2.0,-8.7,4563,7.1
COC(=O)c1nc2n(n1)C(c1cccc(Cl)c1)C1=C(CC(C)(C)CC1=O)N2 (configuration not stated),1.5,-32.2,0.9,2.4,-2.0,4054,12.6
Cc1c(OCC(=O)NC2CCN(Cc3ccccc3)CC2)ccc2c3c(c(=O)oc12)CCC3,-2.3,9.0,-2.5,11.3,7.6,6617,-0.2
COc1ccc(OC)c(C(=O)Cn2nnc(-c3ccc(N4CCOCC4)cc3)n2)c1,1.8,-9.7,-4.7,7.6,-1.6,5044,9.0
COCCn1nnnc1CN(Cc1cccnc1)Cc1cc2cc(OC)ccc2[nH]c1=O,-16.9,0.4,1.2,11.8,5.9,3317,-6.1
CCCC(=O)Nc1nnc(COC)s1,3.4,-20.6,·,·,·,3068,2.1
N#CC1(NC(=O)COC(=O)c2nc(Cl)ccc2Cl)CCCCC1,-1.2,-34.6,9.7,9.3,-0.9,5165,2.6

# Further records follow.
SMILES,RN4220 kill,PrP 5UTR inh,Mtb hypoxia inh,Mtb hypoxia inh growth,BJeLR lethal,Autofluor counter,ugtP null kill
CNC(=S)N(Cc1cccs1)Cc1cc2ccc(OC)cc2[nH]c1=O,4.7,-23.1,6.6,-2.0,3.5,1873,-25.3
CC(C)(C)c1ccc2c(c1)OC(C(=O)NN=Cc1ccc([N+](=O)[O-])o1)CO2 (configuration not stated),99.9*,·,8.3,16.8,·,·,99.5*
O=C(NCC1CCCO1)C(c1ccc(N2CCOCC2)cc1)N(C(=O)Cn1nnc2ccccc21)c1ccccc1F (configuration not stated),8.7,-15.3,-0.8,0.3,-1.1,1992,8.2
CC#CCN1c2ccccc2[C@]23CC(C(=O)OC)N(C(C)=O)C2=NC(C(=O)OC)=C(C(=O)OC)C13 (some centres not stated),2.3,·,21.5,5.4,·,·,0.9
N=c1c2c(-c3ccccc3)c(-c3ccccc3)n(Cc3ccco3)c2ncn1CCCO,-4.5,·,8.1,5.0,18.5,4649,12.8
Cc1cccc(NC(=O)C2CCN(S(=O)(=O)c3ccc4c(c3)NC(=O)CO4)CC2)c1,1.1,-8.9,0.3,-2.2,0.5,6015,2.2
Cc1cccc2cc(C=NNc3ccc(C(=O)O)cc3)c(Cl)nc12,-1.5,·,15.2,11.6,·,·,12.6
CCNC(=S)NNC(=O)c1cc(CC(C)C)nc2ccccc12,3.0,-2.1,6.7,5.6,2.5,22680*,3.0
CCN(CC)CCCn1c2c(c(SCC(=O)Nc3ccccc3Cl)nc1=O)CCC2,1.2,-5.6,6.8,6.4,12.4,?,5.1
CCCCOc1ccc(C(=O)NCCC(=O)NCCCC(=O)OCC)cc1,1.8,-9.8,-9.0,7.3,1.1,3950,-4.0
COc1ccc(NC(=O)N(Cc2cc3cc(OC)ccc3[nH]c2=O)CC2CCCO2)cc1 (configuration not stated),-11.4,-11.2,0.6,8.0,9.9,2963,-8.4
CC(=O)Nc1ccc(S(=O)(=O)Nc2ccc(S(=O)(=O)N3CCCC3)cc2)cc1,0.9,-28.7,-6.9,-1.1,-5.0,12326,-4.9
CN(C)c1cccc(C(=O)NNC(=O)/C=C/c2cccs2)c1,-2.6,-14.1,3.1,3.9,·,8040,4.6
COC(=O)c1cccc(Nc2nc(-c3ccncc3)nc3ccccc23)c1,-5.4,-14.3,0.9,4.2,1.6,3343,3.4
Cc1ccc(C(=O)NCC(=O)NCc2cc(=O)n(C)c(=O)n2C)cc1,3.3,-25.6,1.0,-6.9,-3.3,4655,5.8
COc1ccc(NC(=O)COC(=O)Cc2c(F)cccc2Cl)cc1OC,0.7,-9.7,1.4,0.5,-1.8,4665,-0.2
COc1cc(OC)cc(C(=O)N[C@H](C(=O)NC2=NCCS2)C(C)C)c1,4.2,-20.6,5.0,2.5,·,8435,5.3
O=C(NN=Cc1cccnc1)C(O)c1ccccc1 (configuration not stated),4.5,·,1.9,6.9,·,·,7.6
COc1ccc2occ(C(=O)c3ccc(N)cc3)c2c1,5.4,-26.0,0.4,4.2,-1.3,4625,-1.3
CCOc1ccc(Cc2nnc(SCC(N)=O)n2C)cc1,3.3,-196.4,10.2,15.0,-5.4,21499*,2.0
Nn1c(SCC(=O)Nc2ccc3c(c2)OCO3)nnc1-c1ccc(Cl)cc1,6.6,-16.2,9.8,13.5,4.1,9163,-7.7
O=C(O)c1csc(-c2cccc(Cl)c2)n1,0.6,-19.2,12.4,9.4,2.0,4540,-7.5
COc1ccccc1NC(=O)CSc1nnc(Cc2cc(=O)[nH]c(=O)[nH]2)n1-c1ccccc1,3.2,-23.4,12.7,14.4,-14.7,9688,3.2
COc1ccc(Cc2nc3ccc(C(=O)NCCc4cccc(C)n4)cc3o2)cc1,3.0,-18.0,1.1,12.2,13.0,4083,-3.5
CN1[C@@H]2CC[C@H]1CC(OC(=O)c1c[nH]c3ccccc13)C2 (some centres not stated),·,-15.5,·,·,2.2,4425,·

# Next part, starting with the last two of the part before.
SMILES,RN4220 kill,PrP 5UTR inh,Mtb hypoxia inh,Mtb hypoxia inh growth,BJeLR lethal,Autofluor counter,ugtP null kill
COc1ccc(Cc2nc3ccc(C(=O)NCCc4cccc(C)n4)cc3o2)cc1,3.0,-18.0,1.1,12.2,13.0,4083,-3.5
CN1[C@@H]2CC[C@H]1CC(OC(=O)c1c[nH]c3ccccc13)C2 (some centres not stated),·,-15.5,·,·,2.2,4425,·
CC(=O)Nc1cccc(NC(=O)CSc2nccn2Cc2ccco2)c1,4.0,-24.6,9.6,4.9,-9.1,6486,3.8
CCOc1ccc(C2C(C#N)=C(N)Oc3cc(O)ccc32)cc1OCC (configuration not stated),6.1,-15.3,2.1,-2.0,-2.9,4284,23.8
Cc1ccc(Cn2ncc(Cl)c(Cl)c2=O)cc1,11.7,-12.7,·,·,8.8,10776,15.8
COc1ccc(NC(=O)c2sc(N)nc2-c2ccccc2)cc1,2.7,-4.5,8.7,10.3,7.0,3161,6.2
NCCCCCc1nnc(SC/C=C/c2ccccc2)o1,0.1,-18.3,9.6,11.3,6.4,5117,3.1
O=[N+]([O-])c1ccc(SCc2c(F)cccc2Cl)nc1,0.9,-12.4,8.2,8.5,3.2,4349,-4.6
O=C(COc1cccc(F)c1)Oc1ccc(C(=O)c2ccccc2)cc1,1.3,-15.0,-7.8,-14.0,9.1,2127,-0.7
Cc1ccc(Cl)cc1N(CC(=O)N1CCCCCC1)S(C)(=O)=O,7.9,-31.7,12.0,11.4,7.8,8927,-9.2
O=C(Nc1ccc(Cl)cc1)N1CCN(c2ccc3nnc(-c4ccc(F)cc4)n3n2)CC1,-2.3,-5.6,-14.8,-1.0,6.7,17296*,-9.3
COc1cc(C2c3c(-c4cc(C)cc(C)c4O)n[nH]c3C(=O)N2CCCO)cc(OC)c1OC (configuration not stated),0.3,-20.6,-4.0,-1.5,-2.0,10154,-4.5
O=C(C1CC1)N1N=C(c2ccc(F)cc2)CC1(O)C(F)(F)F (configuration not stated),7.0,1.6,6.8,16.6,-8.5,4085,8.2
Cn1c(Cn2c(=O)sc3ccccc32)nnc1SCC(=O)NCC1CCCO1 (configuration not stated),4.9,-20.5,·,·,-2.6,4470,5.2
O=C(CN1CCOCC1)NCc1ccccc1Cl,-2.6,-3.2,-4.4,0.2,5.6,6071,7.4
CCCc1nnc(NC(=O)CCC(=O)N2CCN(CCOC(c3ccccc3)c3ccccc3)CC2)s1,-2.3,-58.2,-9.0,10.9,-16.6,2439,-3.1
CCOc1ccccc1NC(=O)c1ccc2ccccc2c1,1.9,-17.7,4.1,1.0,-18.4,4119,4.1
O=C(CN1C(=O)c2cccc3cccc1c23)N1CCN(c2cccc(Cl)c2)CC1,2.9,-15.6,·,·,4.1,2300,2.3
CCCCNC(=O)Nc1ccccc1C(=O)Nc1ccc(OC)cc1,0.9,-1.0,·,·,-2.2,2230,-3.9
CCCc1cc(=O)[nH]c(SCC(=O)NN(c2ccccc2)c2ccccc2)n1,9.6,-12.8,1.1,3.1,-7.1,4727,3.6
O=C(CN1CCN(C(=O)c2ccco2)CC1)Nc1ccc(Cl)c(C(F)(F)F)c1,7.2,-12.2,·,·,·,2522,-16.3
CCOP(=O)(c1ccc(N(C)C)cc1)C(O)c1ccc(Cl)cc1 (configuration not stated),10.3,-16.3,-3.7,2.7,·,9765,4.4
Clc1ccc2oc(-c3cccnc3)nc2c1,7.6,-50.4,-10.2,-8.7,-11.7,3582,1.1
O=C(O)c1ccc(-c2nc(-c3cccc(C(F)(F)F)c3)cs2)cc1,0.9,-35.8,3.8,3.2,-3.6,2196,-6.5
O=C1N=C(N2CCOCC2)S/C1=C/c1cc2c(cc1[N+](=O)[O-])OCO2,5.9,-26.4,13.0,12.4,-1.6,3424,4.2
COC(=O)c1ccc(C(=O)OC)c(NC(=O)COC(=O)C2CCCCC2)c1,-0.1,-16.0,8.1,8.9,-1.7,4896,0.6
COc1ccc(OC)c(C(=O)N2CCCC(Nc3ccc(F)cc3)C2)c1 (configuration not stated),-1.2,-14.3,7.0,-3.4,2.3,6091,-0.1
Cc1ccc(S(=O)(=O)Nc2cc(C(F)(F)F)ccc2N2CCOCC2)cc1C,5.7,-10.0,11.2,10.5,-7.6,2435,-4.8
Cc1nc2ccccc2n1CC(=O)OCC(=O)NCCc1ccccc1,1.3,4.2,·,·,3.7,2580,8.6

# Individual results from the entries so far:
# Cn1c(Cn2c(=O)sc3ccccc32)nnc1SCC(=O)NCC1CCCO1 (configuration not stated) in ugtP null kill: 5.2
# Clc1ccc2oc(-c3cccnc3)nc2c1 in BJeLR lethal: -11.7
# CC(=O)Nc1cccc(NC(=O)CSc2nccn2Cc2ccco2)c1 in ugtP null kill: 3.8
# COc1ccc(OC)c(C(=O)N2CCCC(Nc3ccc(F)cc3)C2)c1 (configuration not stated) in Mtb hypoxia inh growth: -3.4
# CCOc1ccccc1NC(=O)c1ccc2ccccc2c1 in Autofluor counter: 4119
# O=C1N=C(N2CCOCC2)S/C1=C/c1cc2c(cc1[N+](=O)[O-])OCO2 in BJeLR lethal: -1.6
